Screening data as filed in PubChem.
ClpP mod = qHTS Assay for Activators of ClpP; ATP-dependent Clp protease proteolytic subunit (Bacillus subtilis (strain 168)), P80244; purified B. subtilis ClpP, FRET peptide cleavage, 20 min; Potency, µM (top dose mostly 57.5 µM), without a hit: top-dose activity change, negative = active; hit rate 1.9% among 340,000; active = well fitted falling curve with a large enough effect; inconclusive = small, poorly fitted or top-dose-only effect; inactive = no such curve, though single readings can be large or run the other way; note: potency is the fitted concentration of half-maximal effect; the source files actives as falling curves though it sought activators and does not explain the sign; nearly all actives have a fitted effect of over 65% in size; many hits overshoot -100%
Target sequence (P80244 whole entry, looked up): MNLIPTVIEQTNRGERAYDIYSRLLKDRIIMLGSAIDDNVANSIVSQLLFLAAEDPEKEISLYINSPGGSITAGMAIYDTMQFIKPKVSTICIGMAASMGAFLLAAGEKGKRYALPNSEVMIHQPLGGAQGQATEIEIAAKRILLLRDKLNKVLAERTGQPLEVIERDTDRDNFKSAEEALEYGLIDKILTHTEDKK
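Purified B. subtilis ClpP, 10 microg/mL final in Tris/HCl pH8 with KCl, BSA, glycerol and Tween-20, cleaved an Abz/nitrotyrosine-quenched decapeptide. Fluorescence (ex 320, em 430) was read at 0 and 20 min at room temperature. Delta was normalized to 5.8 microM ADEP and DMSO/no-enzyme controls.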
TRPV1 PAM = HTS Assay for Compounds that Act as Potentiators of the Vanilloid Receptor 1; Transient receptor potential cation channel subfamily V member 1 (Homo sapiens), Q8NER1; hit rate 0.02% among 320,000; potentiation, % at 8.33 µM; AID 540277, 2011; TRPV1-expressing cells, Fluo-8 calcium influx, capsaicin EC20 potentiation; host cell line not named in the record; control for the full effect not named in the record; active means potentiation above 80%; inconclusive means 30% to 80%; inactive means below 30%; note: 0% is about no effect
Target sequence (Q8NER1 whole entry, looked up): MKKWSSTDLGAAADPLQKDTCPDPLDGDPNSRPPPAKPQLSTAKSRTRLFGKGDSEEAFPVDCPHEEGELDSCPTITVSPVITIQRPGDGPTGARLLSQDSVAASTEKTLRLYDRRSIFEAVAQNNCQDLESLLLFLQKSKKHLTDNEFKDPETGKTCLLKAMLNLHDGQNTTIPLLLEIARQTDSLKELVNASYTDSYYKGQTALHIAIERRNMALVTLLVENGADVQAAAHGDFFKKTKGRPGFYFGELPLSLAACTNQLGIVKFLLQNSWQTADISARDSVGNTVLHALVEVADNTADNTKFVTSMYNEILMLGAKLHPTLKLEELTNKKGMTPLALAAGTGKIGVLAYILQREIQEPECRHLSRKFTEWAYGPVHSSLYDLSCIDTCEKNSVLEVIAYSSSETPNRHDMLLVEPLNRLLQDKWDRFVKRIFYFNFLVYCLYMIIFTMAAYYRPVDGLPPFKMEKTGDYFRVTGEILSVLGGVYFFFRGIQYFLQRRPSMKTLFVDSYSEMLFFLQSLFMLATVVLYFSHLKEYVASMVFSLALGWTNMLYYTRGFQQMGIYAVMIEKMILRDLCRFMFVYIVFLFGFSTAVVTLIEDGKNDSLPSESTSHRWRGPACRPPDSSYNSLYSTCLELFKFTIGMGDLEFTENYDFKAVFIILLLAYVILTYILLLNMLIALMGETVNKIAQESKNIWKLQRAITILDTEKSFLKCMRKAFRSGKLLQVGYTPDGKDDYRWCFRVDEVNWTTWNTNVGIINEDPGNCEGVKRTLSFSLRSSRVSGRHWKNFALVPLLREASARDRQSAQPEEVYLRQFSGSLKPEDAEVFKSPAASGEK
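Fluo-8 calcium influx in TRPV1-expressing cells, kinetic read (ex 480/em 520 nm). Compound added and read 3 min for agonist activity, followed by capsaicin at EC20 final and 2 min further read for enhancement.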
TRPML1 agonist = qHTS for Agonists of the Human Mucolipin Transient Receptor Potential 1 (TRPML1). TRPML1-expressing cells, Ca2+ dye fluorescence, FDSS; host cell line not named in the record; reference of the full effect not given here. Mucolipin-1 (Homo sapiens), Q9GZU1. activation, % (concentration not given with the values). hit rate 0.12% among 410,000; in the data active = activation above about 50%; inconclusive = about 30% to 50%; inactive = below about 30%; note: 0% is about no effect; the text of the record puts the active cut at 80%
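Tet-induced TRPML1-DL cells, 1,500 per well, cultured overnight, were loaded with a no-wash Ca2+ dye for 45–90 min. Calcium fluorescence was recorded on the FDSS for 110 s after compound addition, before the EC80 agonist (4 uM 54-4) was added.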
PINK1 modulator = A Quantitative High throughput Screen to Identify Chemical Modulators of PINK1 Expression. PINK1 immunofluorescence, high-content cytometry, 24 h. Potency, µM (titrated, usually from 76.6 µM), for inactives: at the highest dose activation (PINK1 increase), hits mostly activators. hit rate 0.2% among 410,000. AID 624263, 2012; active = well fitted activation curve with a large enough effect; inconclusive = small, poorly fitted or top-dose-only effect; inactive = flat fitted curve, though single readings scatter; cell line not stated here;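 note: potency is the fitted concentration of half-maximal effect; % of control where 0% means no effect; nearly all actives have a fitted effect of over 65% in size; a mitochondrial uncoupler was the plate control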
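Fluorescence from anti-PINK1 antibody, together with nuclear and cell stains, was scanned on a laser-scanning cytometer. Before staining, stable-line cells were incubated 24 hours with compounds at 5 concentrations; primary antibody 12 h at 10 degrees C.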
TRPML1 blocker = qHTS for Inhibitors of the Human Mucolipin Transient Receptor Potential 1 (TRPML1). TRPML1-inducible cells, Ca2+ dye fluorescence, FDSS; stronger effect = lower value; inhibition of EC80 agonist-evoked calcium signal. activity change, negative = inhibition, % (concentration not given with the values). hit rate 0.02% among 390,000; in the data active means activity change below about -50%; inconclusive means about -30% to -50%; inactive means above about -30%;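 note: stimulus is agonist 54-4 at its EC80 concentration; % is set by controls: 0 for no effect and ±100 for the full control effect; compound concentration not given in the record; the text of the record puts the active cut at -80%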
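Calcium fluorescence in TRPML1-DL cells induced overnight with Tet: a 110 s read after compound pin addition, then a 110 s antagonist read after challenge with 54-4 at 4 uM final (EC80).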
Menin-MLL FL inh = qHTS Assay for Inhibitors Targeting the Menin-MLL Interaction in MLL Related Leukemias: Competition With Fluorescein Labeled MLL-derived Peptide; FP activity change, % at 61.4 µM; 290,000 tested, under 10 active; Fluorescence polarization, fluorescein-MLL peptide displacement from menin; inconclusive = falling polarisation curve, or a change in total fluorescence; inactive = total fluorescence flat and polarisation flat or rising; no compound was filed as active; the % refers to the polarisation; negative = inhibition;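 note: % of control where 0% means no effect; inhibitors lower the polarisation; unlabelled MLL peptide was the positive control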
Sfp inh = qHTS Assay for Inhibitors of Bacillus subtilis Sfp phosphopantetheinyl transferase (PPTase); AID 1490, 2009; 4'-phosphopantetheinyl transferase ffp (Bacillus subtilis), Q9F4F7; hit rate 3.5% among 310,000; Biochemical Sfp PPTase activity, qHTS; Potency, µM, inactives show max response, negative = inhibition, usual class: inhibitors; active = well fitted inhibition curve with a large enough effect; inconclusive = small, poorly fitted or top-dose-only effect, or another doubt; inactive = no such curve, though single readings can be large or run the other way;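 note: the enzyme is Sfp with the accession as filed and its product quenches rhodamine fluorescence; potency is the fitted concentration of half-maximal effect; 0% = enzyme reaction without inhibitor and -100% = no enzyme wells; top concentration of the series not given in the record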
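With Hepes-Na pH 7.6 buffer containing 10 mM MgCl2, Sfp (15 nM) modified BHQ-2-YbbR (12.5 uM) using rhodamine-CoA (5 uM). Two reads 30 minutes apart at 525/598 nm yielded each well's rate.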
Starred values were filed as active, the others as inactive; ? = inconclusive; / = not tested or not shown; [ ] = remark or other dose. No enrichment for hits; 4.4% or so of the library scored in one or more.

Structure	TRPML1 agonist	Menin-MLL FL inh	Sfp inh	TRPV1 PAM	PINK1 modulator	ClpP mod	TRPML1 blocker
COc1ccc(C(=O)N/N=c2\oc3ccccc3cc2C(=O)NCc2ccccc2)cc1	6.7	0.2	11.5%	-10.5	?	-5.1%	26.6
CC(OC(=O)CCNS(=O)(=O)c1ccc(Cl)cc1)C(=O)N(C)Cc1ccccc1 (stereo not given)	-1.2	/	/	/	0.8%	2.0%	32.3
CCOC(=O)N1CCN(C(=O)CSc2nnc(-c3ccc(Cl)s3)o2)CC1	/	3.4	22.2%	-9.7	/	/	/
CSc1nc(N)nc(C(C)C)n1	-0.9	2.3	12.5%	-4.6	3.2%	/	10.6
CCCCn1c(N)c(N(CC)C(=O)c2ccccc2C)c(=O)[nH]c1=O	0.7	2.4	11.9%	-1.7	0.4%	/	-2.7
COc1ccc(CCNCC(O)COc2cccc(Br)c2)cc1OC (stereo not given)	4.7	4.7	-17.1%	24.6	0.9%	/	35.5
Cc1cc(-c2nnc(CCC(=O)N3CCN(Cc4cccc(F)c4)CC3)o2)c(C)o1	0.4	-0.3	-26.9%	-9.4	0.9%	/	-17.7
CN1CC[C@@H]2C(=O)N3CCc4ccc(Br)cc4[C@@H]3C[C@@H]21	0.5	/	/	/	-0.3%	-6.1%	0.2
CCOC(=O)c1ccc(Oc2cc(C)nc(Cl)n2)cc1	-0.1	0.6	-4.4%	-22.6	-1.8%	/	-6.3
Cn1nnnc1SCCCNCc1cc(Br)ccc1OCc1ccccc1	0.1	/	/	/	-1.2%	-1.3%	27.4
O=[N+]([O-])c1cc(-c2cnc3ccccc3n2)ccc1Cl	0.3	-6.5	1.9%	-5.4	3.3%	/	12.9
COc1ccc(N(CC(=O)NCCc2ccccc2)C(=O)CCC(=O)Nc2ccccn2)cc1	0.6	4.1	8.0%	5.7	-0.8%	/	-5.3
COC(=O)c1ccccc1NC(=O)CSc1nccc(C)n1	0.0	-2.8	24.3%	-0.2	2.4%	/	0.8
CC(=O)c1c(C)[nH]c(C(=O)COc2cc(C)ccc2C(C)C)c1C	-0.9	-2.1	12.6%	16.7	3.0%	0.9%	5.1
CC1(C(=O)Nc2cccc3ncccc23)CCN1C(=O)Cc1ccc(-c2ccccc2)cc1 (stereo not given)	0.2	/	/	/	0.8%	-10.2%	-7.9
c1ccc(CNc2nc(-c3cccnc3)cs2)cc1	-0.8	-6.3	35.5µM*	-4.3	2.5%	/	1.2
Cc1ccc(S(=O)(=O)N2CCN(C(=O)COC(=O)/C=C/c3ccc([N+](=O)[O-])cc3)CC2)c(C)c1	-0.7	/	/	/	3.2%	-0.5%	0.5
COc1ccc(CCC(=O)OCC(=O)Nc2ccccc2OC(F)F)cc1OC	-0.7	-1.9	15.9%	-5.2	-0.6%	/	-10.5
CC(C)C[C@H]1COc2cccc(N3CCC[C@H]3CO)c2S(=O)(=O)N1	-1.0	/	/	/	-0.7%	-0.3%	/
COc1cccc(CN2C(=NC(=O)CCC3CCCC3)SC3CS(=O)(=O)CC32)c1 (stereo not given)	0.2	/	8.5%	?	9.9%	-0.2%	20.0
COCCN(C(=O)CNC(=O)c1ccco1)C(C(=O)NC1CCCCC1)c1cccnc1 (stereo not given)	0.0	-6.8	8.4%	7.0	3.5%	-2.0%	5.1
Cc1cc2nc(/C(C#N)=C/c3ccncc3)[nH]c2cc1C	/	19.7	-0.3%	-22.2	3.9%	6.6%	/
CCCNC(=O)C1(C)CCCN(C(=O)c2oc3ccccc3c2C)C1 (stereo not given)	0.0	/	/	/	0.2%	-8.6%	-3.6
COc1ccc(Oc2ncc3nc(-c4cc(F)cc(F)c4)c(=O)n(CCC#N)c3n2)cc1	/	4.2	-13.6%	/	0.8%	/	/
O=C(COC(=O)c1cccc(Br)c1)NC1CCCCCCC1	-0.1	/	/	/	2.1%	-0.2%	-17.7
S=C1NCCNC(=S)NCCOCCN1	1.1	-3.2	-17.9%	4.3	-3.0%	/	13.1
CCC1CCCCN1C(=O)N[C@@H](Cc1ccccc1)C(=O)O (stereo not given in full)	0.4	4.1	7.0%	2.9	2.9%[38.3 µM]	0.4%	3.9
CCCS(=O)(=O)Nc1ccc(N2CCCCC2)c(S(=O)(=O)Nc2ccccc2OC)c1	-0.1	/	/	8.3	?	0.7%	20.3
CC1(NC(=O)CCc2nc3sc4c(c3c(=O)[nH]2)CCCC4)CCS(=O)(=O)C1 (stereo not given)	-0.3	/	/	8.1	1.4%	/	79.1
CCOc1ccc(NC(=O)CN2CCN(CC(=O)Nc3ccc(F)cc3)CC2)cc1	-0.1	0.0	10.2%	?	-2.1%	-0.7%	1.8
C/C(N)=C(/C#N)C(=O)COC(=O)CCSc1ccccc1Cl	0.8	1.4	-26.2%	-4.1	1.1%	-0.1%	21.9
CC(NC(=O)c1ccc(OC2CCN(Cc3ccccn3)CC2)cc1)c1ccccc1 (stereo not given)	-0.4	-4.6	16.8%	-8.9	0.4%	1.8%	-14.8
COCCCNc1nc2ccccc2nc1NS(=O)(=O)c1ccc(Cl)cc1	-0.2	-3.3	26.9%	11.2	7.7%	-20.2%	5.8
NNC(=O)c1cccc(S(=O)(=O)Nc2cc(Cl)ccc2Cl)c1	1.7	5.5	6.8%	26.6	0.1%	/	7.1
Cc1cc(N2C(=O)CC(Cc3ccc(Cl)cc3)C2=O)no1 (stereo not given)	-0.7	-7.7	31.2%[activator]	24.7	-2.0%	-0.3%	4.5
COc1ccc(NC(=O)Nc2cccs2)cc1Cl	1.2	2.1	44.7µM*	-8.9	-1.8%	0.9%	19.1
NC(=O)c1ccc(/C=N/O)nc1	0.8	-5.2	-68.3%	-3.6	0.8%	-1.8%	-7.1
CON	/	-0.5	-9.7%	/	-0.3%	/	/
O=C(C(=O)N1CCN(c2ccccc2)CC1)c1cn(CC(=O)N2CCCCCC2)c2ccccc12	1.0	-26.5	-0.2%	6.0	2.8%	0.6%	-10.0
Cc1ccc(/C=C(\CCC(=O)O)c2nc3ccccc3s2)cc1[N+](=O)[O-]	0.2	0.0	-2.0%	-4.6	0.5%	0.9%	-4.2
CC(C)=CCC[C@H](C)CC1Cc2[nH]c(=S)[nH]c(=O)c2C(c2ccc(Cl)cc2)O1 (stereo not given in full)	-0.4	/	/	/	?	-4.6%	/
O=C(NCCCn1ccnc1)/C(=C\c1ccco1)NC(=O)c1ccco1	2.2	-5.4	15.4%	2.0	2.3%	-0.7%	-6.1
C[C@H]1CN([C@@H](C)CO)C(=O)Cc2cc(NS(C)(=O)=O)ccc2O[C@@H]1CN(C)Cc1ccc(Cl)c(Cl)c1	-0.5	/	/	/	6.2%	-0.9%	3.4
C=CCn1cc(C(=O)c2cc(Br)ccc2O)cc(C#N)c1=O	2.1	17.0	13.0%	-11.7	2.1%	/	-4.7
COc1ccc(C2(O)CCN(C(=O)c3c(F)cccc3F)CC2)cc1	0.6	1.5	-4.3%	2.8	2.5%[38.3 µM]	-0.4%	12.4
COc1ccc(NC(=O)c2ccc(C)cc2)cc1	-0.7	-0.6	3.4%	6.0	0.3%	0.6%	-7.4
CCCCN(C(C)=O)c1ccc2c(c1)C1CC2CCN1C(=O)OCc1ccccc1 (stereo not given)	-0.1	/	/	/	2.4%	3.1%	-0.7
Cc1ccc(S(=O)(=O)Nc2cc3c(cc2N2CCOCC2)n(C)c(=O)c(=O)n3C)cc1	-0.2	/	-2.4%	4.7	-0.8%	-13.7%	4.0
O=C(COC(=O)CCC(=O)c1cccs1)Nc1cccc(F)c1	-1.0	/	/	-11.8	-0.1%	1.0%	7.7
COc1cc(NC(=O)c2cccc(F)c2)cc(OC)c1OC	-1.0	-1.9	-2.8%	-6.8	0.2%	0.3%	3.3

Other results.
Structure	TRPML1 agonist	Menin-MLL FL inh	Sfp inh	TRPV1 PAM	PINK1 modulator	ClpP mod	TRPML1 blocker
[O-][n+]1c2c(nc3c1-c1ccccc1C3O)CCCC2 (stereo not given)	/	-2.1	-12.7%	4.4	/	/	/
CC(CNC(=O)c1ccc2c(c1)OCO2)c1ccc([N+](=O)[O-])cc1 (stereo not given)	0.1	2.0	20.0%	-7.8	0.0%	/	-1.8
Cc1ccc(S(=O)(=O)NCCCCC(NC(=O)OC(C)(C)C)C(=O)O)cc1 (stereo not given) (tested in a mixture with another compound)	-0.8	1.0	14.8%	18.1	6.3%	-0.8%	1.9
O=C(COc1nnnc2ccccc12)N1CCCc2ccccc21	-0.8	4.4	24.1%	8.9	1.2%	1.2%	32.8
CCn1c(=O)n(CC)c2cc(S(=O)(=O)NCCOc3ccccc3)c(C)cc21	0.4	8.8	22.0%	-8.7	8.1%[38.3 µM]	0.2%	20.4
CCOC(=O)N1N=C(C)CC1(O)c1ccccc1 (stereo not given)	0.3	1.2	18.3%	2.7	-1.3%	-1.0%	2.4
COc1ccccc1NS(=O)(=O)c1cccc(C(=O)NCC(c2ccc(F)cc2)N2CCOCC2)c1 (stereo not given)	-1.0	/	/	-10.5	2.5%	-3.4%	1.5
CCOC(=O)N1CCN(CCC(=O)Nc2ccc(OC)cc2)CC1	-0.8	1.6	0.5%	1.1	-2.5%	1.5%	-4.0
